Screening data (PubChem BioAssay)
FGF22 binding = FGF22 (human) thermal shift binding; AID 651658; recombinant FGF22 thermal shift, SYPRO orange fluorescence; percent of sucrose octasulfate shift, DMSO zero; calls only at 9.99 µM; 340,000 compounds, 1.5% hits;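 active = melting point raised past a set limit in the mean and every replicate; three in four hits are not shown here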
Target sequence (Q9HCT0 whole entry, looked up): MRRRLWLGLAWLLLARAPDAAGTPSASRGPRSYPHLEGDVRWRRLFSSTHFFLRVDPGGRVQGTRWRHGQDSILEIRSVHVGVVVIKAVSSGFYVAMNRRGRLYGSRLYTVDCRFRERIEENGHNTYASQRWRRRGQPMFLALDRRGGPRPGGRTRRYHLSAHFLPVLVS
UCH37 DUB inh = human UCH37 deubiquitinating enzyme inhibition | Q9Y5K5 | purified proteasome/UCH37, Ub-AMC cleavage fluorescence | inhibition, % (no concentration beside the values) | 330,000 compounds, 0.33% hits | AID 588478;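 active = mean of two replicates above 20%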;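 note: 0% = compound-free wells with enzyme and 100% = wells lacking proteasome; stock transfer was 100 nL into about 20 µL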
Target sequence (Q9Y5K5 whole entry, looked up): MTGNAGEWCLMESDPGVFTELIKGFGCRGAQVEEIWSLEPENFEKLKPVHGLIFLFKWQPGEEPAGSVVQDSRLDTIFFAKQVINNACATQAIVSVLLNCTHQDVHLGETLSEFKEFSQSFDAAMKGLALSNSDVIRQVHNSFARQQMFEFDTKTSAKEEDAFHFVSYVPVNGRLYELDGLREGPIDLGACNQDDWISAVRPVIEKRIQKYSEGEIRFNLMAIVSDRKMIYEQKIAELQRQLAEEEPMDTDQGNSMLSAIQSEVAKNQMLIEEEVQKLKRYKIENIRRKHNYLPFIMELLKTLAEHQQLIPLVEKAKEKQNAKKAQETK
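Reagent: Ub-AMC substrate; assay system: Proteasome-associated human UCH37 deubiquitinase; controls: no-proteasome and no-compound wells; read-out: % inhibition of Ub-AMC cleavage fluorescence; timing: 30 min preincubation with enzyme, 25 min cleavage at room temperature; signal: AMC fluorescence from Ub-AMC cleavage, excitation 355 nm, emission 460 nm; buffer or medium: Tris-HCl pH 7.4 plus ovalbumin, ATP-MgCl2, DTT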
Ecoli growth = inhibitors of Escherichia coli growth; OD600, 23 h; active compounds read low; OD600 absorbance (test concentration not listed); 330,000 compounds, 0.21% hits;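 active = OD600 absorbance below the run mean of sample wells minus 3.6 SD, in any replicate, cut at about 0.56 in these data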;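 note: stock transfer was 300 nL into about 60 µL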
ALR inh = blocks human ALR sulfhydryl oxidase activity. P55789. purified ALR, DTT oxidation, H2O2 HRP-luminol luminescence. inhibition, % (test concentration not listed). 290,000 compounds, 3.8% hits;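 active = mean and each replicate at 75% or more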;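 note: stock transfer was 7.5 nL into about 7.5 µL; 0% = neutral wells and 100% = wells with inactivated enzyme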
Beta2AR agonist = human beta-2 adrenergic receptor agonism by FAP. Am2.2-beta2AR cells, FAP receptor internalization, flow cytometry; reference of the scale not given here. response, % (test concentration not listed). 340,000 compounds, 0.43% hits. AID 504454;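 active = response above a set limit, near 3 SD of response in nonfluorescent compounds, cut at about 42% in these data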;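 note: stock transfer was 100 nL into about 11 µL; a reference agonist was the positive control; negative values mostly stem from fluorescent compounds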
Target sequence (P07550 whole entry, looked up): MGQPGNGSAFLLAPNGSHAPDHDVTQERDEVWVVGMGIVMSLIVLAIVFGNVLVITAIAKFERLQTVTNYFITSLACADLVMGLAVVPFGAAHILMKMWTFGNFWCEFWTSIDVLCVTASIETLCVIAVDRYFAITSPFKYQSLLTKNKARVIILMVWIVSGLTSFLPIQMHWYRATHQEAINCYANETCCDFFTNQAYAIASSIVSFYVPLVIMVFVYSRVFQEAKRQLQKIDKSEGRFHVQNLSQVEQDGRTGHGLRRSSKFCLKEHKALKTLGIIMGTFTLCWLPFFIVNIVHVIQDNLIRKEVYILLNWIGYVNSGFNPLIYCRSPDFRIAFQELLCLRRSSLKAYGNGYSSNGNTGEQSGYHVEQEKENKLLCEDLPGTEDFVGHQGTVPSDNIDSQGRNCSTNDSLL
HNF4A DNA FP = change in binding of human HNF4 alpha to DNA. 360,000 compounds, 0.3% hits. AID 1224865. HNF4a-FITC DNA binding, fluorescence polarization, 1 h. activity change, % at 10 µM; in the data active = activity change above about 30%, passing the limit was not always enough;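 note: controls were the assay level and a saturating level of protein; the project sought stronger binding though the title names inhibitors; some compounds called inactive have numbers as strong as hits; positive values seem to mean higher polarization but the record does not say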
LANA-H2A inh = blocks KSHV LANA binding to histone H2A/H2B. cell-free LANA-H2A/H2B peptide, fluorescence polarization. 320,000 compounds, 0.6% hits. inhibition, % (concentration not given with the values). AID 2629; in the data active = inhibition mostly above about 10%, no sharp cut-off; inactive = mostly below about 6.7%;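 note: stock transfer was 7.5 nL into about 10 µL; 0% = median of vehicle wells and 100% = median of positive control wells; one replicate is shown; the record names a cut of 25% in any replicate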
Numbers without * were called inactive; i = inactive; . = no result given; + = active, no number.

SMILES	FGF22 binding	UCH37 DUB inh	Ecoli growth	ALR inh	Beta2AR agonist	HNF4A DNA FP	LANA-H2A inh
Nc1ccccc1SCC(=O)Nc1nc(-c2ccccc2)cs1	+	4.6	0.69	.	6	1.3	8.8
CC1CCN(c2nc3ccc(C(=O)N4CCN(Cc5ccc6c(c5)OCO6)CC4)cc3s2)CC1	i	4.8	0.72	4	0	-2.9	4.0
CN(C)c1cccc(NC2=CC(=[N+]3CCOCC3)CC(C)(C)C2)c1	.	14	0.69	23	2	-10	-0.2
CCCCOC(=O)c1ccc(NC(c2ccc(C)cc2)P(=O)(OC)OC)cc1 (stereo unspecified)	i	5.9	0.7	0	-1	-4.4	-7.3
CC(=O)NC1=NC(=O)/C(=C/N2CCCCC2)S1	.	-1.7	0.69	20	8	6.0	9.0
CC(C)Oc1ccc(C(=O)CCN2CCOCC2)cc1	i	5.4	0.63	53	5	2.5	4.6
Cc1ccccc1-c1nc(CN2CCSCC2)c(C)o1	i	3.7	0.66	.	-11	0.4	-0.4
CC1CC(C)CN(C(=O)CSc2nnc(-c3ccc(Cl)s3)o2)C1 (stereo unspecified)	i	1.0	0.73	2	-16	1.7	-3.2
NC(=O)CSc1nnc(-c2cccc(S(=O)(=O)N3CCCCC3)c2)o1	i	0.4	0.68	-7	20	-1.2	15
COc1ccc(-n2c(C)cc(C(=O)CSc3nn4c(=O)c(C(C)(C)C)nnc4s3)c2C)cc1	.	6.5	0.71	7	-8	2.1	6.1
Nc1c(C(=O)N/N=C/c2ccc(Cl)cc2)cnn1-c1ccccc1	i	.	.	4	-12	2.2	6.2
O=C(O)CCC(=O)Nc1ccc(N2CCCCC2)c(C(=O)O)c1	.	-0.7	0.7	-7	-2	3.3	-0.7
COc1ccccc1NC(=O)Cc1noc(CSc2cccc[n+]2[O-])n1	.	2.0	0.75	.	0	3.0	7.1
COc1ccccc1-n1c(SCC(=O)N2CCCCC2)nnc1-c1ccccc1O	.	-1.8	0.74	0	-5	3.0	5.2
CC1=CC2=NC(=O)/C(=C\c3cccn3CCOc3cccc(C)c3)C(=N)N2O1	i	2.4	0.68	4	-4	-0.3	4.4
O=[N+]([O-])c1nn(-c2ccccc2)n(O)c1=NCc1ccc2c(c1)OCO2	.	6.0	0.68	-9	-1	-1.5	-2.2
CN(C)CCNC(=O)c1cc2ccccc2oc1=O	.	-18	0.74	9	-18	-0.1	-4.7
CCOC(=O)C1CCCN(CCC(=O)Nc2ccc(C)cc2)C1 (stereo unspecified)	.	3.8	0.71	-2	-1	-2.1	5.3
CC(C)(C)NC(=O)Cn1nnc(-c2cccs2)n1	.	3.2	0.76	-16	-5	-2.7	-1.1
Cc1ccccc1OC(C)C(=O)NCc1cccnc1 (stereo unspecified)	.	0.5	0.68	-1	-1	-2.1	5.1
CCOc1ccc(NC(=S)NCC(c2cccnc2)N2CCOCC2)cc1 (stereo unspecified)	i	1.1	0.68	8	-1	2.1	0.0
Cc1csc(NC(=O)c2ccc(Br)s2)n1	i	4.1	0.66	-1	3	5.0	3.2
CCn1c(C)nc2cc(C(=O)NNC(=S)NC(=O)c3ccc(OC)cc3)ccc21	i	8.9	0.69	37	11	-0.6	0.5
NS(=O)(=O)c1cccc(-n2cnnn2)c1	i	2.9	0.66	.	0	4.2	2.3
O=C(NC1CCCCC1)c1cccs1	.	1.6	0.7	8	0	1.8	3.0
Cc1nc(CNC(=O)CC2C(=O)NCCN2Cc2ccc(F)cc2)cs1 (stereo unspecified)	i	-6.1	0.69	-11	-1	-0.1	-10
COCCCNc1nc2ccccc2nc1NS(=O)(=O)c1ccc(C)cc1C	i	-85	0.74	-3	-9	-3.7	3.7
COC(=O)C1=NN(C(C)=O)C2(CC(=O)N(c3cccc(C)c3)C2=O)C1 (stereo unspecified)	.	-0.4	0.7	14	5	4.4	2.2
CCCC1CCC(C(=O)n2nc(N)c3cc4ccc(OC)cc4nc32)CC1 (stereo unspecified)	i	2.4	0.75	.	1	1.4	0.8
CC(C)n1cc(C#N)c(N)n1	i	.	.	.	4	-1.2	.
Cc1ccc(NC(=O)N2CCOCC2)c(C)c1	.	6.8	0.72	-1	-1	-6.3	5.9
CC1(c2ccccc2Cl)NC(=O)N(CC(=O)N2c3ccccc3NC(=O)C2(C)C)C1=O (stereo unspecified)	i	0.3	0.69	4	-4	-2.2	-0.8
COc1cc(CN2CCNC(=O)C2CC(=O)NCc2csc(C(C)C)n2)cc(OC)c1 (stereo unspecified)	i	-0.8	0.68	-7	3	-5.8	-5.7
O=C1CCC(C(=O)OCc2c(Cl)cccc2Cl)N1 (stereo unspecified)	i	4.1	0.74	1	2	1.8	-1.0
O=C1N2CCCc3cccc(c32)C12Nc1ccccc1S2 (stereo unspecified)	.	4.3	0.68	.	9	3.0	.
C=CCNC(=O)/C(C#N)=C/c1c(C)nn(-c2ccccc2)c1Cl	i	0.6	0.68	96*	10	-2.0	2.7

Compound profiles, as listed above.
`COC(=O)C1=NN(C(C)=O)C2(CC(=O)N(c3cccc(C)c3)C2=O)C1` (stereo unspecified) reads FGF22 binding: .; UCH37 DUB inh: -0.4; Ecoli growth: 0.7; ALR inh: 14; Beta2AR agonist: 5; HNF4A DNA FP: 4.4; LANA-H2A inh: 2.2
`CCOc1ccc(NC(=S)NCC(c2cccnc2)N2CCOCC2)cc1` (stereo unspecified) reads FGF22 binding: i; UCH37 DUB inh: 1.1; Ecoli growth: 0.68; ALR inh: 8; Beta2AR agonist: -1; HNF4A DNA FP: 2.1; LANA-H2A inh: 0.0

Rewritten with bars between the fields: part of the list above
Molecule | FGF22 binding | UCH37 DUB inh | Ecoli growth | ALR inh | Beta2AR agonist | HNF4A DNA FP | LANA-H2A inh
O=C(NC1CCCCC1)c1cccs1 | . | 1.6 | 0.7 | 8 | 0 | 1.8 | 3.0
Cc1nc(CNC(=O)CC2C(=O)NCCN2Cc2ccc(F)cc2)cs1 (stereo unspecified) | i | -6.1 | 0.69 | -11 | -1 | -0.1 | -10
COCCCNc1nc2ccccc2nc1NS(=O)(=O)c1ccc(C)cc1C | i | -85 | 0.74 | -3 | -9 | -3.7 | 3.7
COC(=O)C1=NN(C(C)=O)C2(CC(=O)N(c3cccc(C)c3)C2=O)C1 (stereo unspecified) | . | -0.4 | 0.7 | 14 | 5 | 4.4 | 2.2
CCCC1CCC(C(=O)n2nc(N)c3cc4ccc(OC)cc4nc32)CC1 (stereo unspecified) | i | 2.4 | 0.75 | . | 1 | 1.4 | 0.8
CC(C)n1cc(C#N)c(N)n1 | i | . | . | . | 4 | -1.2 | .

New compounds follow:
SMILES	FGF22 binding	UCH37 DUB inh	Ecoli growth	ALR inh	Beta2AR agonist	HNF4A DNA FP	LANA-H2A inh
Cc1cc(N2CCCC2=O)ccc1S(=O)(=O)N1CCOCC1	i	5.6	0.66	-15	-3	-0.5	2.3
Cc1cc(C)cc(-n2ncc3c2CCCC3NC(=O)c2csnn2)c1 (stereo unspecified)	i	0.4	0.64	-3	-4	-1.0	4.0
CCCCNc1nnc(SCC(=O)c2c(N)n(CCC)c(=O)[nH]c2=O)s1	i	1.0	0.7	-4	0	0.8	-1.8
COc1ccccc1CCN1CCCC(CN(C)Cc2ccc(OCCO)cc2)C1 (stereo unspecified)	i	0.6	0.68	-17	-5	-1.8	8.1
Cc1cc2nc(C)n3c4ccccc4nc3n2n1	.	-1.5	0.63	-6	-20	0.9	-4.0
CN1CCN(C(=O)C2=C[C@@H](c3ccc4c(c3)OCO4)C[C@@H](OCc3ccc(CO)cc3)O2)CC1	i	1.7	.	-2	-1	2.4	2.4
Cn1cnnc1SC/C(O)=C(\C#N)c1nc2ccccc2[nH]1	.	7.0	0.7	-3	-1	2.6	5.6
COc1cccc(NS(=O)(=O)NC(=O)c2c(C)[nH]c3ccccc23)c1	i	1.4	0.68	-16	8	0.3	0.7
O=C(CCNC(=O)c1ccc(Br)cc1)NC1CCCc2ccccc21 (stereo unspecified)	i	1.1	0.69	22	1	-3.3	-0.9
Cc1ccc(/C=C/C(=O)Nc2sc(C)c(C)c2C(=O)OC(C)C)o1	.	-55	0.68	3	5	-1.4	-3.5
Nc1nonc1-n1nnc(C(=O)N/N=C/c2c[nH]c3ccccc23)c1-c1ccccc1	i	.	.	.	5	2.1	0.9
CCCOC(=O)c1c(NC(=O)CCC(=O)O)sc2c1CCCCC2	i	4.2	0.68	89*	1	-1.2	-3.2
CCCCOc1ccccc1C1NC(=O)CCC1[N+](=O)[O-] (stereo unspecified)	i	2.0	0.64	-19	2	0.7	5.7
Cc1ccc2nc(NC(=O)CCCC(=O)O)sc2c1	i	1.0	0.69	-4	6	4.6	-3.0
O=C(N1CCN(c2ccc(F)cc2)CC1)C12CC3CC(CC(C3)C1)C2	.	3.2	0.71	27	12	3.3	4.9
O=C(CCn1nnc2ccccc2c1=O)N[C@H](C(=O)O)c1ccccc1	.	4.5	0.7	9	4	0.9	1.1
O=C(COC(=O)c1cccc(S(=O)(=O)N2CCc3ccccc32)c1)NC1CCS(=O)(=O)C1 (stereo unspecified)	.	5.9	0.71	.	-11	0.9	-0.4
Cc1ccc(N2CC(C(=O)NCCS(=O)(=O)N3CCN(c4ccc(F)cc4)CC3)CC2=O)cc1 (stereo unspecified)	i	2.4	0.68	-6	-3	-0.7	5.6
Cc1ccc(CNC(=O)c2ccccc2-n2cnnn2)cc1	i	2.1	0.68	-2	2	0.2	9.7
CCOc1[nH]n(-c2ccccc2)c(=O)c1C=Nc1ccc(F)cc1F	.	2.6	0.73	-11	-4	1.8	1.6
COc1ccc(-c2noc(CCC(=O)Nc3cccc(C)c3)n2)cc1	.	2.4	0.71	.	-6	-1.1	-8.6
COC(=O)c1sc2ncccc2c1OCc1cccc(Cl)c1	.	3.3	0.69	1	2	1.1	5.2
COc1cccc(-c2cc(C(=O)NCC3CCCO3)on2)c1 (stereo unspecified)	i	3.4	0.69	12	5	-4.1	-0.1
O=C1Cc2cc(O)ccc2O1	i	5.3	0.67	.	-6	-1.2	.
Cn1c(=O)[nH]c(=O)c2c1nc(CN1CCN(c3cccc(Cl)c3)CC1)n2CCc1ccccc1	.	2.5	0.66	-4	-7	-2.1	-2.4

Ordered by value in LANA-H2A inh (low to high): three from the list above.
SMILES | FGF22 binding | UCH37 DUB inh | Ecoli growth | ALR inh | Beta2AR agonist | HNF4A DNA FP | LANA-H2A inh
COc1ccc(-c2noc(CCC(=O)Nc3cccc(C)c3)n2)cc1 | . | 2.4 | 0.71 | . | -6 | -1.1 | -8.6
O=C(COC(=O)c1cccc(S(=O)(=O)N2CCc3ccccc32)c1)NC1CCS(=O)(=O)C1 (stereo unspecified) | . | 5.9 | 0.71 | . | -11 | 0.9 | -0.4
Cc1ccc(N2CC(C(=O)NCCS(=O)(=O)N3CCN(c4ccc(F)cc4)CC3)CC2=O)cc1 (stereo unspecified) | i | 2.4 | 0.68 | -6 | -3 | -0.7 | 5.6

Some of the compounds tested, so the mix of outcomes need not match the whole.
